Screening results as filed in PubChem.
PrP 5UTR inh – inhibition of PrP 5' UTR reporter expression; 340,000 compounds, 0.35% hits; inhibition, % (test concentration not listed); cell-based PrP 5' UTR mRNA reporter, plate reader; AID 488862;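 active = every replicate at 50% or more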;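 also: 0 = median of the neutral control wells; tested in H4 reporter cells; numbers are from one replicate; inactives centre near -14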
Mtb hypoxia rep – inhibitors of hypoxia-regulated fluorescent reporter in Mycobacterium tuberculosis; M. tuberculosis hypoxia-regulated fluorescent reporter, fluorescence; fluorescence inhibition, % (test concentration not listed); 300,000 compounds, 0.1% hits; AID 1159583;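 active = 35 to 45% if threefold the growth effect, above 45% if 1.5-fold the growth effect; inactive = the rest, general growth blockers included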;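 also: wells of about 50 µL received 100 nL stock; 0% = vehicle wells and 100% = reference inhibitor wells; whole bacteria with a GFP reporter of the hypoxia response; strong numbers were not always called active; many hits fall short of the cut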
Sa ugtP lethal – kills S. aureus RN4220 lacking UgtP; 330,000 compounds, 0.54% hits; S. aureus RN4220 ugtP deletion, OD600 growth, 16 h; some inactives read as strong as hits; AID 1259309; growth inhibition, % (concentration not given with the values);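 active = z-score under -3 and OD600 up to 0.15 on both plates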;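 also: plate controls were untreated wells for no effect and antibiotic for full effect; wells of about 80 µL received 100 nL stock; the first replicate is given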
Autofluor counter – compound fluorescence in toxin protease inhibitor counterscreen. AID 624483. fluorescence intensity (concentration not given with the values). compound autofluorescence counterscreen, microsphere flow cytometry; hits give high values. 360,000 compounds, 3.1% hits;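 active = at least 3 SD above the mean of all compounds, about 16000 in these data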;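 also: 100 nL of 1 mM stock went into each well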
BJeLR lethal – BJeLR cell viability loss; BJeLR (HRASV12) viability, CellTiter-Glo ATP luminescence, 48 h; reference of the scale not given here; inhibition, % (no concentration beside the values); 300,000 compounds, 0.17% hits; AID 1554;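 active = replicate mean above 50%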;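 also: 50 nL library stock added to about 25 µL; numbers are from one replicate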
RN4220 kill – kills Staphylococcus aureus RN4220. inhibition, % (no concentration beside the values). S. aureus RN4220 growth, OD600, 16 h. 330,000 compounds, 0.33% hits;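 active = z-score of -3 or lower and OD600 up to 0.18 on both plates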;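 also: plate controls were untreated cells for no effect and reference antibiotic for full effect; stock transfer was 100 nL into about 80 µL; one replicate is shown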
Mtb hypoxia rep growth – further read-out of Mtb hypoxia rep, marked with its call; growth inhibition, %; measured here: M. tuberculosis growth (absorbance);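 0% = vehicle and 100% = reference antibiotic; read after six days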
Starred values were filed as active, the others as inactive. Not a hit list; any-hit rate near 4%.

How did Cc1cc(OCC(=O)Nc2cc(S(=O)(=O)N3CCOCC3)ccc2N2CCCC2)ccc1C(C)C do in these assays?
PrP 5UTR inh: 8; Mtb hypoxia rep: -6; Sa ugtP lethal: -1; Autofluor counter: 4327; BJeLR lethal: -1; RN4220 kill: -1.7; Mtb hypoxia rep growth: -3

Results for COc1ccc(C2CC(=O)C=C(c3ccc(F)nc3)C2)cc1OC (stereo not given) ?
Mtb hypoxia rep: 0; Sa ugtP lethal: 4; RN4220 kill: 3.1; Mtb hypoxia rep growth: 8

How did CCOC(=O)C1=C(O)C(=O)NC(c2ccccc2)=C(OC2CCCCC2)C1 do in these assays?
PrP 5UTR inh: -8; Mtb hypoxia rep: 4; Sa ugtP lethal: 9; Autofluor counter: 2655; BJeLR lethal: 7; RN4220 kill: 1.3; Mtb hypoxia rep growth: 10

What do the screens show for `Cn1c(N)c(C(=O)COC(=O)c2ccc([N+](=O)[O-])o2)c(=O)n(C)c1=O`?
PrP 5UTR inh: -81; Sa ugtP lethal: 0; Autofluor counter: 4842; BJeLR lethal: -13; RN4220 kill: 4.7

Results for COc1ccccc1CNC(=O)COC(=O)C1CCN(S(=O)(=O)c2c(Cl)cccc2Cl)CC1 ?
PrP 5UTR inh: -5; Mtb hypoxia rep: -5; Sa ugtP lethal: 4; Autofluor counter: 3899; RN4220 kill: -2.8; Mtb hypoxia rep growth: 9

Results for CCN(CC1CCCN(CCc2cccc(OC)c2)C1)C(=O)c1ccoc1 (stereo not given) ?
PrP 5UTR inh: -28; Mtb hypoxia rep: 5; Sa ugtP lethal: 5; Autofluor counter: 6122; BJeLR lethal: 1; RN4220 kill: 1.1; Mtb hypoxia rep growth: -2

How did CCN1CCN(S(=O)(=O)c2c[nH]c(C(=O)OC)c2)CC1 do in these assays?
PrP 5UTR inh: -7; Mtb hypoxia rep: 3; Sa ugtP lethal: -4; Autofluor counter: 5700; BJeLR lethal: 11; RN4220 kill: -11; Mtb hypoxia rep growth: 6

Results for O=C1N(c2nncs2)CCN1[N+](=O)[O-] ?
PrP 5UTR inh: -23; Sa ugtP lethal: -4; Autofluor counter: 4439; BJeLR lethal: 16; RN4220 kill: 0.7

How did COc1ccccc1NC(=O)c1ccc(Cl)c(S(=O)(=O)N2CCCCC2)c1 do in these assays?
PrP 5UTR inh: -1; Mtb hypoxia rep: 2; Sa ugtP lethal: 9; Autofluor counter: 4546; BJeLR lethal: -2; RN4220 kill: 2.8; Mtb hypoxia rep growth: 1

How did Cc1cccc(Cn2c(SCCO)nc3c2c(=O)n(C)c(=O)n3C)c1 do in these assays?
PrP 5UTR inh: -44; Mtb hypoxia rep: 15; Sa ugtP lethal: -2; Autofluor counter: 3168; BJeLR lethal: 2; RN4220 kill: -12; Mtb hypoxia rep growth: 21

What do the screens show for `Cc1ccc(S(=O)(=O)N2CCN(C(=O)c3ccccn3)CC2)c(C)c1`?
PrP 5UTR inh: -10; Mtb hypoxia rep: 10; Sa ugtP lethal: 6; Autofluor counter: 4203; BJeLR lethal: 4; RN4220 kill: 3.7; Mtb hypoxia rep growth: 7

How did COc1ccccc1-c1noc2ncnc(Nc3ccccc3C)c12 do in these assays?
PrP 5UTR inh: 1; Mtb hypoxia rep: 5; Sa ugtP lethal: 3; Autofluor counter: 4166; BJeLR lethal: -11; RN4220 kill: 8.8; Mtb hypoxia rep growth: 1

How did O=C(c1ccc(O)cc1)c1ccc(O)cc1O do in these assays?
PrP 5UTR inh: -9; Mtb hypoxia rep: 4; Sa ugtP lethal: 1; Autofluor counter: 4616; BJeLR lethal: 6; RN4220 kill: 1.1; Mtb hypoxia rep growth: 7

How did O=C(COc1ccc(/C=N/NC(=O)c2ccc(O)cc2)cc1)Nc1cccc([N+](=O)[O-])c1 do in these assays?
PrP 5UTR inh: -9; Autofluor counter: 3324; BJeLR lethal: 6

How did COc1cccc(C(=O)OCC(=O)NCC2CCCO2)c1 (stereo not given) do in these assays?
PrP 5UTR inh: -27; Mtb hypoxia rep: 9; Sa ugtP lethal: 1; Autofluor counter: 4327; RN4220 kill: 4.9; Mtb hypoxia rep growth: 6

Results for CCOC(=O)N/N=C/c1ccc(N(CC)CC)cc1O ?
PrP 5UTR inh: -73; Autofluor counter: 2465; BJeLR lethal: 23

Results for C=C1CCN(C(Cc2ccccc2)C(=O)OC)S(=O)(=O)c2ccc(F)cc21 (stereo not given) ?
PrP 5UTR inh: -10; Mtb hypoxia rep: 13; Sa ugtP lethal: -12; Autofluor counter: 3945; BJeLR lethal: 10; RN4220 kill: 4.5; Mtb hypoxia rep growth: 9

Results for COc1ccc2cc(CN(CC3CCCO3)S(=O)(=O)c3ccccc3Cl)c(=O)[nH]c2c1 (stereo not given) ?
PrP 5UTR inh: -20; Mtb hypoxia rep: 6; Sa ugtP lethal: 0; Autofluor counter: 4939; BJeLR lethal: -3; RN4220 kill: 7.8; Mtb hypoxia rep growth: 1

What do the screens show for `O=C(NCc1ccc2c(c1)CCO2)Nc1cccc(C(F)(F)F)c1`?
PrP 5UTR inh: -12; Mtb hypoxia rep: -2; Sa ugtP lethal: -9; BJeLR lethal: -1; RN4220 kill: -8.1; Mtb hypoxia rep growth: -4

Results for CN1c2ccccc2C(=O)/C(=C\Nc2ccc(F)cc2)S1(=O)=O ?
PrP 5UTR inh: -8; Mtb hypoxia rep: -5; Sa ugtP lethal: -3; Autofluor counter: 4163; BJeLR lethal: -12; RN4220 kill: -2.2; Mtb hypoxia rep growth: 6

How did O=C(O)CSc1c2c(nc3cc(C(=O)Nc4ccc(F)c(Cl)c4)ccc13)CCCC2 do in these assays?
PrP 5UTR inh: 0; Mtb hypoxia rep: 5; Sa ugtP lethal: 9; Autofluor counter: 5818; BJeLR lethal: -8; RN4220 kill: 17; Mtb hypoxia rep growth: 4

What do the screens show for `Cc1ccc(NC2=C(Cl)C(=O)OC2OC(=O)c2ccco2)cc1C` (stereo not given)?
PrP 5UTR inh: 0; Mtb hypoxia rep: 8; Sa ugtP lethal: -4; Autofluor counter: 2567; BJeLR lethal: 1; RN4220 kill: 3.9; Mtb hypoxia rep growth: 10

How did COc1ccccc1NS(=O)(=O)c1cccc(NC(=O)c2nn(C)c(=O)c3ccccc23)c1 do in these assays?
Mtb hypoxia rep: 13; Sa ugtP lethal: 0; RN4220 kill: 9.5; Mtb hypoxia rep growth: 10

How did C=CC[n+]1c(-c2ccc(Cl)cc2Cl)csc1Nc1c(C)n(C)n(-c2ccccc2)c1=O do in these assays?
PrP 5UTR inh: -5; Mtb hypoxia rep: -8; Sa ugtP lethal: -3; Autofluor counter: 2110; BJeLR lethal: 1; RN4220 kill: -4.8; Mtb hypoxia rep growth: -11

What do the screens show for `Nc1nonc1C(=O)N/N=C/c1ccncc1`?
PrP 5UTR inh: -15; Autofluor counter: 4596; BJeLR lethal: 4

Results for CSCCC(NC(N)=O)C(=O)Nc1ccc2ccccc2c1 (stereo not given) ?
PrP 5UTR inh: -21; Mtb hypoxia rep: 0; Sa ugtP lethal: 5; Autofluor counter: 3567; BJeLR lethal: -5; RN4220 kill: 5.2; Mtb hypoxia rep growth: 3

What do the screens show for `CCSc1ccccc1C(=O)Nc1cccnc1`?
PrP 5UTR inh: -24; Mtb hypoxia rep: 1; Sa ugtP lethal: 2; Autofluor counter: 23629*; BJeLR lethal: 4; RN4220 kill: -0.9; Mtb hypoxia rep growth: -6

What do the screens show for `CCCCn1c(=O)n(C)c(=O)c2c3c(sc21)COC(C)(C)C3`?
PrP 5UTR inh: -3; Sa ugtP lethal: -5; Autofluor counter: 4452; BJeLR lethal: 1; RN4220 kill: 5.7

Results for Nc1cc(=O)[nH]c(SCC(=O)Nc2cc(S(=O)(=O)N3CCCCCC3)ccc2Cl)n1 ?
PrP 5UTR inh: -10; Mtb hypoxia rep: 5; Sa ugtP lethal: 11; Autofluor counter: 2983; RN4220 kill: 4.6; Mtb hypoxia rep growth: 2

What do the screens show for `CC(=NNC(=S)Nc1c(C)cccc1C)c1ccc(OC(F)F)cc1`?
Mtb hypoxia rep: 11; Sa ugtP lethal: -5; RN4220 kill: 7.4; Mtb hypoxia rep growth: 7

Structural class, those above containing a furan ring, fused or not
What do the screens show for `Cn1c(N)c(C(=O)COC(=O)c2ccc([N+](=O)[O-])o2)c(=O)n(C)c1=O`?
PrP 5UTR inh: -81; Sa ugtP lethal: 0; Autofluor counter: 4842; BJeLR lethal: -13; RN4220 kill: 4.7

Results for CCN(CC1CCCN(CCc2cccc(OC)c2)C1)C(=O)c1ccoc1 (stereo not given) ?
PrP 5UTR inh: -28; Mtb hypoxia rep: 5; Sa ugtP lethal: 5; Autofluor counter: 6122; BJeLR lethal: 1; RN4220 kill: 1.1; Mtb hypoxia rep growth: -2

What do the screens show for `Cc1ccc(NC2=C(Cl)C(=O)OC2OC(=O)c2ccco2)cc1C` (stereo not given)?
PrP 5UTR inh: 0; Mtb hypoxia rep: 8; Sa ugtP lethal: -4; Autofluor counter: 2567; BJeLR lethal: 1; RN4220 kill: 3.9; Mtb hypoxia rep growth: 10

Additional structures
Results for COc1ccc(/C=C/C(=O)NC(=S)N2CCN(C)CC2)cc1 ?
PrP 5UTR inh: -16; Mtb hypoxia rep: 3; Sa ugtP lethal: 0; Autofluor counter: 3394; BJeLR lethal: 2; RN4220 kill: 0.8; Mtb hypoxia rep growth: 10

How did CCOC(=O)c1cn2nc(Oc3ccccc3)ccc2n1 do in these assays?
PrP 5UTR inh: -29; Mtb hypoxia rep: -10; Sa ugtP lethal: -6; Autofluor counter: 4150; BJeLR lethal: -4; RN4220 kill: -2.5; Mtb hypoxia rep growth: -8

What do the screens show for `O=C(NN=Cc1ccc(N2CCOCC2)s1)c1ccc(NS(=O)(=O)c2cccs2)cc1`?
Mtb hypoxia rep: 12; Sa ugtP lethal: 8; RN4220 kill: 0.0; Mtb hypoxia rep growth: -2

How did O=C(NCC(F)(F)F)Nc1cccnc1 do in these assays?
PrP 5UTR inh: -24; Sa ugtP lethal: 9; Autofluor counter: 2588; RN4220 kill: 6.9

Results for O=C(NCCc1nc(-c2ccccc2Cl)no1)C1CCCCC1 ?
PrP 5UTR inh: -8; Mtb hypoxia rep: 7; Sa ugtP lethal: 0; Autofluor counter: 4174; BJeLR lethal: -11; RN4220 kill: 1.2; Mtb hypoxia rep growth: 0

How did CCOc1ccc(N(CC(=O)N2CCc3ccccc32)S(=O)(=O)c2c(C)noc2C)cc1 do in these assays?
PrP 5UTR inh: 79*; Sa ugtP lethal: 9; Autofluor counter: 4974; BJeLR lethal: 1; RN4220 kill: -2.8

Results for COc1ccc(N(CC(=O)NCc2ccco2)S(C)(=O)=O)cc1OC ?
PrP 5UTR inh: -19; Mtb hypoxia rep: 1; Sa ugtP lethal: 1; Autofluor counter: 9919; BJeLR lethal: -1; RN4220 kill: 0.4; Mtb hypoxia rep growth: -4

How did CN(c1ccccc1)S(=O)(=O)c1ccc(NC(=O)c2ccccc2C(=O)O)cc1 do in these assays?
PrP 5UTR inh: -18; Mtb hypoxia rep: 8; Sa ugtP lethal: 0; Autofluor counter: 5291; BJeLR lethal: -6; RN4220 kill: 0.4; Mtb hypoxia rep growth: 2

Results for CCOP(=O)(OCC)c1cccc(O)c1 ?
PrP 5UTR inh: -8; Mtb hypoxia rep: 11; Sa ugtP lethal: 0; Autofluor counter: 2605; BJeLR lethal: -6; RN4220 kill: 3.0; Mtb hypoxia rep growth: 3

What do the screens show for `CCOc1ccc(NC(=O)CN(C)C(=O)c2ccccc2-n2cnnn2)cc1OCC`?
PrP 5UTR inh: -26; Mtb hypoxia rep: 5; Sa ugtP lethal: 5; Autofluor counter: 4952; BJeLR lethal: -3; RN4220 kill: -0.2; Mtb hypoxia rep growth: 1

How did Cc1ccc(/C=C2\CCn3c2nc2cc(C(=O)O)ccc2c3=O)c(C)c1 do in these assays?
PrP 5UTR inh: -18; Mtb hypoxia rep: 5; Sa ugtP lethal: -5; Autofluor counter: 2930; BJeLR lethal: 17; RN4220 kill: 17; Mtb hypoxia rep growth: 2

How did c1ccc(C(c2nnnn2Cc2ccco2)N2CCN(C3CCCC3)CC2)cc1 (stereo not given) do in these assays?
PrP 5UTR inh: -5; Sa ugtP lethal: 6; Autofluor counter: 3702; BJeLR lethal: -4; RN4220 kill: 2.0
